# Ecoli growth – blocks Escherichia coli growth. OD600, 23 h; stronger effect = lower value. OD600 absorbance (test concentration not listed). 330,000 tested, 0.21% active. AID 1053175;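 active = OD600 absorbance below the run mean of sample wells minus 3.6 SD, in any replicate, cut at about 0.56 in these data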;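 also: stock transfer was 300 nL into about 60 µL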
# ALR inh – human ALR oxidase inhibition via reduced H2O2 | purified ALR, DTT oxidation, H2O2 HRP-luminol luminescence | inhibition, % (concentration not given with the values) | AID 485317 | P55789 | 290,000 tested, 3.8% active;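 active = mean and each replicate at 75% or more; inconclusive = only one of the two met; inactive = neither met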;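 also: stock transfer was 7.5 nL into about 7.5 µL; 0% = neutral wells and 100% = wells with inactivated enzyme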
# Target sequence (P55789 whole entry, looked up): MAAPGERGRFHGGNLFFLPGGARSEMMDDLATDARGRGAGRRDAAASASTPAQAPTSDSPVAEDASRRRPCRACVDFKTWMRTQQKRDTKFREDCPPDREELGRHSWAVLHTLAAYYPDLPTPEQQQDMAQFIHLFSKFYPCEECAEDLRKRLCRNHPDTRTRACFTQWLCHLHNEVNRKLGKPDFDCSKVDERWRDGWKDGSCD
# MLL AF4-AF9 inh – MLL-AF4/AF9 protein interaction inhibition. P42568. AlphaScreen, biotin-AF4 peptide binding to FLAG-AF9. inhibition, % at 10 µM. 350,000 tested, 0.47% active. AID 651704;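 active = every replicate reaching a set inhibition limit, whatever the replicate mean, cut at about 25% in these data; inconclusive = mean inhibition reaches that limit but some replicates miss it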;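 also: 0% = plate neutral control median and 100% = total signal loss; the record names both 10 and 1 µM as test concentration; the first replicate is given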
# FGF22 binding – binders of recombinant human FGF22 by thermal shift. Q9HCT0. SYPRO orange fluorescence; percent of sucrose octasulfate shift, DMSO zero. calls only at 9.99 µM. 340,000 tested, 1.5% active. AID 651658;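 active = melting point raised past a set limit in the mean and every replicate; inconclusive = no clear call; three in four hits are not shown here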
# Target sequence (Q9HCT0 whole entry, looked up): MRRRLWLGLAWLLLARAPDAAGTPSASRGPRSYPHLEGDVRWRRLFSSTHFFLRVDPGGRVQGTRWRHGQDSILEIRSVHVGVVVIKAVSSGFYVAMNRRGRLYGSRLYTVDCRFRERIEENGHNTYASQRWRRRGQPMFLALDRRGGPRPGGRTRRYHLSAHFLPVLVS
# HNF4A DNA FP – change in binding of human HNF4 alpha to DNA. AID 1224865. P41235. activity change, % at 10 µM. 360,000 tested, 0.3% active. HNF4a-FITC DNA binding, fluorescence polarization, 1 h; in the data active = activity change above about 30%, passing the limit was not always enough;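 also: controls were the assay level and a saturating level of protein; the project sought stronger binding though the title names inhibitors; some compounds called inactive have numbers as strong as hits; positive values seem to mean higher polarization but the record does not say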
# Target sequence (P41235 whole entry, looked up): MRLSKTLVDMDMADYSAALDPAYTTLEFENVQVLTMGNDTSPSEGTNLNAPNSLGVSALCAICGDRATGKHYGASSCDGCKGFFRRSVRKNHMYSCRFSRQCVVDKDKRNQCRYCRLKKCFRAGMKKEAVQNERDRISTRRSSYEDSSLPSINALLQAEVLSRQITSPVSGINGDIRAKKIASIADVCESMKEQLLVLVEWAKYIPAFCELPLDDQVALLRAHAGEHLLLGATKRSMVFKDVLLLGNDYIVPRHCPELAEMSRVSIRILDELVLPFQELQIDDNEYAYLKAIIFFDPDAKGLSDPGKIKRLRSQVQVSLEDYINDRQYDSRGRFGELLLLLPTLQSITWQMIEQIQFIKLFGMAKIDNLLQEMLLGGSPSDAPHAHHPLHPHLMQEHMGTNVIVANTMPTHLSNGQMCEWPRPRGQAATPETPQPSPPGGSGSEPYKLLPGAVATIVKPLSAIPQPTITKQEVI
# Vif A3G – HIV-1 Vif–A3G interaction blockers – biochemical, TR-FRET, GST-Vif 1-94, biotin-A3G peptide, dose response retest, primary screen (AID 1117319); TR-FRET GST-Vif / biotin-A3G peptide binding; higher % means a stronger effect; test concentration not given here; strong numbers were not always called active; one-dose inhibition, %; IC50 in µM for titrated hits; 260,000 tested, 0.57% active;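 active = above the screen mean plus three standard deviations and confirmed in dose response; inconclusive = results disagree or hit not tested in dose response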;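 also: Vif residues 1-94 fused to GST binding biotinylated APOBEC3G peptide 110-148; 0% = full assay without inhibitor and 100% = GST in place of GST-Vif; retest series ran down from 100 µM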
# Ecoli rRNA inh – inhibits bacterial ribosomal RNA function over humanized ribosomes; GFP signal change (wild-type ribosome), % (no concentration beside the values); E. coli WT GFP vs humanized-ribosome RFP mutants, fluorescence, 24 h; stronger effect = lower value; DMSO median 0, no signal -100; AID 720706; 350,000 tested, 1.6% active;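 active = significant combined selectivity score with lowered wild-type GFP, culture density cut under 30%, mutant RFP and density less affected; inactive = any of these conditions unmet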; also: one replicate is shown; some compounds called inactive have numbers as strong as hits
# Ecoli rRNA inh OD600 – second read-out of Ecoli rRNA inh, no call of its own (marks repeat the call); OD600 change, %; measured here: OD600 growth;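 optical density of the mix in the first replicate; 0 = DMSO median and -100 = no signal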
# Ecoli rRNA inh RFP – also measured in Ecoli rRNA inh; calls as there; RFP signal change, %; measured here: RFP humanized mutant strains;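 first replicate; 0 = DMSO median and -100 = no signal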
# * hit, by the source's call; i = inactive; ? = inconclusive; . = not tested or not shown; & = joins results of further samples. Some of the compounds tested; the hit share may differ from the screen's.
SMILES,Ecoli growth,ALR inh,MLL AF4-AF9 inh,FGF22 binding,HNF4A DNA FP,Vif A3G,Ecoli rRNA inh,Ecoli rRNA inh OD600,Ecoli rRNA inh RFP
CN1C(=O)c2cc(NC(=O)Nc3ccccc3)ccc2OC[C@@H]2O[C@H](CC(=O)NC3CCC3)CC[C@@H]21,.,.,0.4,i,.,.,-2,-10,-1.5
CCOCCCNC(=O)C(NC(=O)c1ccc2c(c1)OCO2)c1ccc(Cl)cc1 (stereo not drawn),0.68,2,-0.9,i,2.4,1%,7,1,-11
CCOC(=O)c1c(C)n(C)c2ccc(OC(=O)c3ccco3)cc12,0.76,-3,.,.,-1.8,2%,.,.,.
Cc1ccc(S(=O)(=O)NC(CC(=O)NCC2CCCO2)c2ccco2)cc1 (stereo not drawn),0.7,-5,.,.,1.9,-7%&0%,.,.,.
O=C(C[C@H]1CC[C@@H](NC(=O)C2CCC2)[C@@H](CO)O1)NC1CCC1,.,.,-3.0,i,.,.,1,4,-2.5
O=c1sc2ccccc2n1Cc1ccccc1,0.7,.,-4.1,i,0.1,-3%,5,10,1.1
C=CCn1c(=O)c2c(nc3n2CCS3)n(C)c1=O,0.67,-2,-0.3,.,1.5,-1%,-1,1,-2.3
CCc1c(C)nc(SCc2cccnc2)[nH]c1=O,0.69,99*,.,.,-0.2,23%,.,.,.
O=C(c1ccc(F)cc1)N1CCN(S(=O)(=O)c2ccc3c(c2)OCCO3)CC1,.,.,0.2,i,0.4,1%,-5,-13,2.4
COc1cccc(S(=O)(=O)N[C@H]2CC[C@@H](CCNC(=O)Nc3cc(F)ccc3F)O[C@@H]2CO)c1,.,.,6.5,i,.,.,-7,6,-1.7
C=CCNC(=O)C(=O)NCC(c1ccc2c(c1)OCO2)N1CCN(c2ccc(F)cc2)CC1 (stereo not drawn),0.69,14,0.2,i,2.9,5%,4,-1,-2.5
O=C(CCN1CCOCC1)N1c2ccccc2Sc2ccc(Cl)cc21,0.66,1,3.7,i,0.1,2%,-6,-8,6.7
C/C(=C\c1ccc(F)cc1)C(=O)c1c(C)cc(C)[nH]c1=O,0.64,.,2.9,i,0.7,-2%,4,1,-11
CC(=O)c1ccc(N2CCN(c3ncccn3)CC2)cc1,0.71,1,0.1,i,0.9,1%,-5,-5,-4.2
COc1ccc(S(=O)(=O)Nc2ccc3c(c2)CC(=O)N([C@H](C)CO)C[C@H](C)[C@@H](CN(C)C(=O)Nc2ccc(C(F)(F)F)cc2)O3)cc1,.,.,0.3,i,.,.,0,-2,0.4
CN(C)Cc1ccccc1CCc1ccccc1,0.62,1,-5.6,i,-1.3,.,4,16,2.0
COc1cccc(CN(C)C(=O)c2ccccc2SCC(=O)N2CCCC2)c1,0.7,-1,-2.3,i,2.4,-6%,6,1,1.0
CCOC(=O)CN1C(=O)C(O)(CC(=O)c2ccccn2)c2ccccc21 (stereo not drawn),0.71,-6,-4.9,i,-2.2,-4%,3,6,1.3
CCOC(=O)N1CCC(N2C(=O)c3ccc(C(=O)NCCOC)cc3C2=O)CC1,0.66,0,-2.1,i,-0.8,-1%,12,16,-1.0
Nc1[nH]n2c(=O)c3c(nc2c1N=Nc1ccc(Cl)cc1)CCCC3,0.77,?,.,.,1.9,8%,.,.,.
O=P(c1ccccc1)(c1ccccc1)c1cc(S(=O)(=O)O)ccc1O,0.68,-8,-1.0,i,-14,26%,1,-5,0.3
O=C(Cc1n[nH]c(=O)c2ccccc12)OCC(=O)c1ccc(F)cc1,0.69,-5,0.1,i,2.9,.,3,8,-2.3
CN(CC(=O)Nc1c(Cl)cccc1Cl)C(=O)CNC(=O)C1CCCCC1,0.66,-7,-4.1,i,0.5,7%,-1,2,-0.9
CC[n+]1cc(-c2ccccc2)nc(N2CCOCC2)n1,0.68,-8,-30,i,-0.7,15%,8,4,2.3
CCOc1c(Br)cc(/C=C(\C#N)C(=O)NC2CC2)cc1OC,0.68,56,-1.9,i,-2.8,.,0,0,1.2
COc1ccc([N+](=O)[O-])cc1NC(=O)CSCc1cc(C)cc(C)c1,0.69,-3,7.0,i,-3.5,-5%,-4,-5,-2.3
O=C(/C=C/c1ccco1)Nc1ccccc1N1CCOCC1,0.73,59,3.8,i,0.3,.,-6,-25,-4.2
CC1C(c2ccccc2)=[N+]([O-])C2(CCCCC2)N1O (stereo not drawn),0.68,-5,.,.,-2.1,7%,.,.,.
COC(=O)c1ccc(/C=C/C(=O)O)cc1,0.65,-23,-0.3,i,0.8,.,10,4,2.8
CCCn1c(N)c(N(CCOC)C(=O)c2ccc(C#N)cc2)c(=O)[nH]c1=O,0.66,-5,0.7,i,0.4,.,0,-17,-1.5

# Exported as tab-separated lines: entries from further up
compound	Ecoli growth	ALR inh	MLL AF4-AF9 inh	FGF22 binding	HNF4A DNA FP	Vif A3G	Ecoli rRNA inh	Ecoli rRNA inh OD600	Ecoli rRNA inh RFP
CC1C(c2ccccc2)=[N+]([O-])C2(CCCCC2)N1O (stereo not drawn)	0.68	-5	.	.	-2.1	7%	.	.	.
O=C(c1ccc(F)cc1)N1CCN(S(=O)(=O)c2ccc3c(c2)OCCO3)CC1	.	.	0.2	i	0.4	1%	-5	-13	2.4

# Continuation.
SMILES,Ecoli growth,ALR inh,MLL AF4-AF9 inh,FGF22 binding,HNF4A DNA FP,Vif A3G,Ecoli rRNA inh,Ecoli rRNA inh OD600,Ecoli rRNA inh RFP
COc1ccc(/C=N/NC(=O)CCCOc2ccc(Cl)cc2Cl)cc1,.,-9,0.5,.,10,-2%,-3,-8,-0.7
COc1ccc(S(=O)(=O)N2CCc3ccccc32)cc1C(=O)NC1(C)CCS(=O)(=O)C1 (stereo not drawn),0.7,.,-1.4,i,2.2,-8%,1,-4,0.4
O=C(COc1ccc(S(=O)(=O)N2CCCCC2)cc1)NCc1ccccn1,0.67,-7,-0.2,i,-1.4,31%,14,6,0.4
Nc1nnnn1/N=C/c1ccccc1O,.,12,.,i,-6.2,.,3,5,-0.4
Cc1ccc2[nH]c(=O)c(C(c3nnnn3C3CCCC3)N3CCCc4ccccc43)cc2c1 (stereo not drawn),0.69,-11,.,.,-1.7,17%,.,.,.
CCCNC(=O)NC(=O)CN1C(=O)NC(C)(c2ccc3ccccc3c2)C1=O (stereo not drawn),0.65,-56,-0.5,i,1.8,-5%,-1,-10,1.3
COc1ccc(NC(=O)CC2C(=O)N(c3cccc(OC)c3)C(=O)N2Cc2ccco2)cc1 (stereo not drawn),0.72,7,0.4,i,2.1,4%,0,1,-0.6
C[C@@H]1CN([C@@H](C)CO)C(=O)c2cc(NS(=O)(=O)c3ccc(Cl)cc3)ccc2O[C@H]1CN(C)C(=O)Nc1ccccc1,.,.,-2.3,i,.,.,4,5,1.5
CNC[C@H]1Oc2cc(-c3ccccc3OC)ccc2S(=O)(=O)N([C@@H](C)CO)C[C@@H]1C,.,.,-7.3,i,.,.,-1,5,0.4
COc1ccc(CN(C)C[C@H]2OCCCC[C@@H](C)Oc3ccc(NC(=O)NC(C)C)cc3C(=O)N([C@H](C)CO)C[C@H]2C)cc1,.,.,4.1,i,.,.,3,7,-1.3
O=C(c1ccccc1)N1CC(=O)N2[C@@H](CO)[C@@H](c3ccc(C#CC4CC4)cc3)[C@@H]2C1,.,.,3.6,i,.,.,1,6,-4.6
O=C(C[C@H]1C=C[C@@H](NS(=O)(=O)c2ccccc2)[C@H](CO)O1)NCc1ccncn1,.,.,-2.8,i,.,.,2,1,-0.7
Cc1cccnc1,0.68,3,.,i,-1.4,.,2,8,-1.6
O=C(Nc1ccccc1)C1=C[C@H](c2ccc(C(F)(F)F)cc2)C[C@H](OCc2ccc(CO)cc2)O1,.,.,-3.8&-13,i,.,.,5,-8,-12
CNC(=O)c1sccc1SCc1c(Cl)cccc1Cl,0.7,0,.,.,0.7,-1%,.,.,.
Cc1ccc(S(=O)(=O)N(CC(=O)N2CCC(C)CC2)Cc2ccccc2F)cc1,0.63,-2,.,.,-9.4,3%,.,.,.
CC(=O)Nc1ccc(S(=O)(=O)N2CCC(Oc3ccc(-n4cnnn4)cc3)CC2)cc1,0.7,-10,1.5,i,0.7,0%,-5,-1,10
CCCCN(C(=S)NC(=O)c1ccccc1)c1c(N)n(Cc2ccccc2)c(=O)[nH]c1=O,0.69,-3,2.0,i,-1.2,30%,3,-2,-1.2
C[C@@H]1CN([C@H](C)CO)C(=O)c2cc(C#Cc3cccc(F)c3)cnc2O[C@H]1CN(C)C(=O)c1ccccc1F,.,.,0.9,i,.,.,-1,-26,6.5
COc1ccc(CN(C)C[C@@H]2OCc3cnnn3CCCC(=O)N([C@@H](C)CO)C[C@H]2C)cc1,.,.,-2.0&0.9,i,-1.7,-5%,7&3,19&4,1.9&0.8
COC(=O)[C@]12C[C@H](CC(=O)N3CCOCC3)C(=O)N(Cc3ccccc3)C1=C[C@H](C(C)(C)C)O[C@@H]2C,.,.,-5.7,i,.,.,8,4,3.7
Cc1ccc(Cn2nc3c4cc(F)ccc4n(Cc4ccc(F)cc4)cc-3c2=O)cc1,0.7,.,-0.2,i,-3.5,-2%,12,5,-0.1
COc1cccc(NC(=O)COC(=O)c2c(C)noc2C)c1,0.7,-19,-0.8,i,-2.0,.,4,-8,-2.0
C[C@H](CO)N1C[C@H](C)[C@@H](CN(C)C(=O)Nc2ccc3c(c2)OCO3)OCc2cnnn2CCCC1=O,.,.,0.4&-0.9,i,.,.,1,1,-0.3
COc1ccc(NC(=O)N(C)C[C@H]2OCCCC[C@@H](C)Oc3ccc(NC(=O)Nc4ccccc4)cc3C(=O)N([C@H](C)CO)C[C@H]2C)cc1,.,.,-1.3,i,.,.,0,3,4.4
Cc1ccc(CSC2=NCCN2C(=O)C2CC2)cc1,0.72,-5,.,.,0.7,-4%,.,.,.
O=C(/C=C/c1ccccc1)Nc1cccc(C(=O)N2CCCC2)c1,.,.,-3.9,i,5.2,-3%,-4,3,-9.3
COc1cc(-c2nnc(SCc3ccccc3Cl)o2)cc(OC)c1OC,0.75,-4,.,.,2.0,0%,.,.,.
CCOC(=O)c1ccc(NC(=O)c2cccc(S(=O)(=O)N3CCOCC3)c2)cc1,0.74,3,.,.,-0.6,-3%,.,.,.
O=C(NCCc1ccccc1)C1CCC(CNc2nc(=S)[nH]c3ccccc23)CC1 (stereo not drawn),0.71,-3,0.8,i,-3.5,-3%,.,.,.
CCc1nn(CC(=O)N2CCN(c3ccc(F)cc3)CC2)c(=O)c2cc3occc3n12,0.71,11,-5.2,i,2.1,.,2,0,2.0
COc1cc(CN2CCCCCC2)cc([N+](=O)[O-])c1O,0.71,0,-3.7,i,-3.9,.,1,10,-2.2
O=C(Nn1c(C2CCCCC2)nc2ccccc2c1=O)c1cc(Cl)ccc1[N+](=O)[O-],0.74,-1,-0.5,i,1.4,-2%,-4,-5,-0.6
COc1cccc(Cn2cccc(NC(=O)NC3CCCCC3)c2=O)c1,0.73,-18,.,.,-0.3,1%,.,.,.
O=C(Nc1ccc(Cl)cc1)[C@@H]1[C@@H]2C(=O)N(c3ccc4ccccc4c3)C(=O)[C@@H]2[C@H]2C=CC=NN21,0.69,.,.,.,5.6,1%,.,.,.
Cc1cccc(C(=O)NCC(=O)OCc2nc(N)nc(Nc3ccccc3C)n2)c1,0.71,0,-1.3,i,-0.6,.,4,-3,1.1

# Screening data: PubChem BioAssay, several laboratories
